KCNQ2 inh: KCNQ2 potassium channel inhibitors, primary screen, cell-based, CHO-K1, FluxOR thallium flux, B-score (AID 2156); O88943; 20 min; hits give low values; only compounds with negative scores are shown here; some inactives read as strong as hits; B-score at 10 µM; actives 1.1% (n = 310,000);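 active = fluorescence ratio B-score at most minus 3 library SDs, with starting brightness B-score within 2 library SDs, cut at about -5.5 in these data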
Target sequence (O88943 whole entry, looked up): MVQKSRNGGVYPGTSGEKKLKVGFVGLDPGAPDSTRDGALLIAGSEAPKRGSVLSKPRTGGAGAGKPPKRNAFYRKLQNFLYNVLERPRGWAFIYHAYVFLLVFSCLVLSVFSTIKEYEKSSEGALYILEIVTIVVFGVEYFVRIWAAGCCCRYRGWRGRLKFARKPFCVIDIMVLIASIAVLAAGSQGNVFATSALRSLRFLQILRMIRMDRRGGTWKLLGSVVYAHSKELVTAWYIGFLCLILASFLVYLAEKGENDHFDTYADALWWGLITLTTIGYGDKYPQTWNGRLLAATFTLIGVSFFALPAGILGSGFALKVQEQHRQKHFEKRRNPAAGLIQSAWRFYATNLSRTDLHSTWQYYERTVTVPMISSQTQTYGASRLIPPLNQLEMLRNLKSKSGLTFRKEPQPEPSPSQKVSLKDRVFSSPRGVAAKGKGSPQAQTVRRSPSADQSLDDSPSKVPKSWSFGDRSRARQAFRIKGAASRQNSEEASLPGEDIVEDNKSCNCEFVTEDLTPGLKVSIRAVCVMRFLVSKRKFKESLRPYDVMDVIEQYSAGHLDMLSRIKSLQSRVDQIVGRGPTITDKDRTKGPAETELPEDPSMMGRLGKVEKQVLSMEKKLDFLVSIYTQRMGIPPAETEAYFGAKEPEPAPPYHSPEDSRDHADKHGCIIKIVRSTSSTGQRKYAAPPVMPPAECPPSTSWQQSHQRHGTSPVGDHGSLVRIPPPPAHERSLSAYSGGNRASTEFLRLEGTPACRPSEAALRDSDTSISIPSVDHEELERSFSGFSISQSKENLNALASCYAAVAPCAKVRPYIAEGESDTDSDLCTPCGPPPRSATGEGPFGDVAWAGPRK
KCNQ2 inh baseline: second read-out of KCNQ2 inh, no call of its own (marks repeat the call); B-score; measured here: initial fluorescence intensity artifact check;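 brightness before thallium and not channel activity; 0 = typical well and far values either way flag optical interference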
Starred values were filed as active, the others as inactive. Not all compounds are listed, so the mix of outcomes need not match the whole.

CC(=O)c1cccc(S(=O)(=O)NCCC(=O)Nc2ccc(S(N)(=O)=O)cc2)c1 was read as KCNQ2 inh inactive and KCNQ2 inh baseline 0.68.
`O=C(Nc1cccc(C(=O)O)c1)/C(=C\c1ccc2c(c1)OCO2)NC(=O)c1ccccc1Cl` gave KCNQ2 inh inactive and KCNQ2 inh baseline -0.45.
CCN(CC)c1ccc(C(=O)OCC(=O)Nc2sccc2C#N)cc1 was read as KCNQ2 inh inactive and KCNQ2 inh baseline -2.59.
For Clc1ccc(Oc2ccccc2)c2ncccc12 the results were KCNQ2 inh inactive and KCNQ2 inh baseline -0.21.
`CC(C)Cc1cc(C(=O)N(C)C2CCCN(Cc3ccccc3F)C2)n(C)n1` (stereo not given) gave KCNQ2 inh inactive and KCNQ2 inh baseline 0.08.
`Cc1ccc(CSc2ncnc3onc(C)c23)cc1` gave KCNQ2 inh inactive and KCNQ2 inh baseline -0.01.
Screening O=C(NC(=S)NNC(=O)c1ccccc1[N+](=O)[O-])c1ccccc1 returned KCNQ2 inh inactive and KCNQ2 inh baseline -1.72.
For Cc1ccc(-n2cc(-c3ccccc3)c3c(NN4CCOCC4)ncnc32)cc1 the results were KCNQ2 inh inactive and KCNQ2 inh baseline -0.21.
For COc1ccc(O)c(CN2CCCC(N3CCc4ccccc4C3)C2)c1 (stereo not given) the results were KCNQ2 inh inactive and KCNQ2 inh baseline -0.06.
`CCOCCCNc1nc2ccccc2[nH]1` gave KCNQ2 inh inactive and KCNQ2 inh baseline -1.35.
Screening COc1ccc(NC(=O)Cn2c3ccc(OC)cc3c3nc4n(c(=O)c32)CCS4)cc1 returned KCNQ2 inh inactive and KCNQ2 inh baseline 2.77.
For CC(C)(C)c1ccc(OCCCC(=O)Nc2ccc(S(N)(=O)=O)cc2)cc1 the results were KCNQ2 inh inactive and KCNQ2 inh baseline -0.98.
`CCCCCCCNC(=O)C1(CC2CC(c3ccc(Cl)cc3)=NO2)CCN(C(=O)OC(C)(C)C)CC1` (stereo not given) gave KCNQ2 inh inactive and KCNQ2 inh baseline 0.47.
Screening Cc1ccc(S(=O)(=O)N=Nc2c(O)[nH]c3ccccc23)cc1C returned KCNQ2 inh inactive and KCNQ2 inh baseline -1.19.
`COc1cccc2cc(C(=O)N(C)C)c(=O)oc12` gave KCNQ2 inh inactive and KCNQ2 inh baseline 1.74.
CCN(CC)S(=O)(=O)c1ccc(C(=O)NCCSc2c[nH]c3ccccc23)cc1 was read as KCNQ2 inh inactive and KCNQ2 inh baseline -0.01.
O=C(Oc1ccccc1C(=S)N1CCOCC1)c1ccc([N+](=O)[O-])cc1[N+](=O)[O-] was read as KCNQ2 inh inactive and KCNQ2 inh baseline 0.11.
COc1cnc(-c2ccccc2)nc1Oc1cccc(C)c1C was read as KCNQ2 inh inactive and KCNQ2 inh baseline -0.04.
Screening O=C(c1ccc(-c2cccc(C(F)(F)F)c2)o1)N1CCCCCCC1 returned KCNQ2 inh -6.19* and KCNQ2 inh baseline 0.3*.
For CCCc1nc2ccccc2c(C(=O)OCC(=O)NCc2ccc3c(c2)OCO3)c1CC the results were KCNQ2 inh inactive and KCNQ2 inh baseline -0.08.
Screening Cc1nnc(C)n1/N=C/c1cc(Br)ccc1O returned KCNQ2 inh inactive and KCNQ2 inh baseline 0.09.
For Cc1ccc(OC(C)C(=O)Nc2ccccc2C(=O)N2CCOCC2)cc1 (stereo not given) the results were KCNQ2 inh inactive and KCNQ2 inh baseline 0.04.
Screening COC(=O)c1ccc(CSc2nnc(NC(=O)C3CCCO3)s2)cc1 (stereo not given) returned KCNQ2 inh inactive and KCNQ2 inh baseline 2.64.
For C/C(=N/OCO/N=C(\C)c1ccccc1)c1ccccc1 the results were KCNQ2 inh inactive and KCNQ2 inh baseline -1.31.
`CC(=O)OC(C(=O)NC1CCCCC1)c1ccccc1` (stereo not given) gave KCNQ2 inh inactive and KCNQ2 inh baseline 1.19.
Cc1onc(-c2c(F)cccc2Cl)c1C(=O)Nc1cccc(Cn2cccn2)c1 was read as KCNQ2 inh inactive and KCNQ2 inh baseline -1.49.
CCOc1ccccc1NC(=O)[C@@H](NC(=O)c1cccc(S(=O)(=O)N2CCOCC2)c1)C(C)C was read as KCNQ2 inh inactive and KCNQ2 inh baseline 0.53.
`Clc1nc(Nc2ccc(N3CCOCC3)cc2)c2ccccc2n1` gave KCNQ2 inh inactive and KCNQ2 inh baseline 0.71.
For CCOc1ccc(C(=O)NC2=NCCS2)cc1 the results were KCNQ2 inh inactive and KCNQ2 inh baseline -0.01.
Cc1onc(-c2c(F)cccc2Cl)c1C(O)c1ccc(F)cc1 (stereo not given) was read as KCNQ2 inh inactive and KCNQ2 inh baseline 1.07.
`CCOC(=O)C(NC(C)=O)C(=O)Nc1ccc(C(C)(C)C)cc1` (stereo not given) gave KCNQ2 inh inactive and KCNQ2 inh baseline 0.04.
COc1cc(-c2nnc(COC(=O)C3c4ccccc4Oc4ccccc43)o2)cc(OC)c1OC was read as KCNQ2 inh inactive and KCNQ2 inh baseline -0.76.
`Cc1ccc(CN(CC(=O)NC(C)(C)C)C(=O)CNC(=O)c2cccs2)cc1` gave KCNQ2 inh inactive and KCNQ2 inh baseline -1.3.
Screening COc1ccc(C2=NOC(C)(c3nnc(-c4ccccc4)o3)C2)cc1 (stereo not given) returned KCNQ2 inh inactive and KCNQ2 inh baseline 0.41.
Screening CC(C)c1nnc(NC(=O)CN2C(=O)c3ccccc3C2=O)s1 returned KCNQ2 inh inactive and KCNQ2 inh baseline 0.37.
CCN1C(=O)C(CC(=O)N2CCN(C(c3ccccc3)c3ccccc3)CC2)N(CC)C1=O (stereo not given) was read as KCNQ2 inh inactive and KCNQ2 inh baseline 2.55.
CC(C)(C)NC(=O)COc1ccc(CNCc2ccccn2)cc1 was read as KCNQ2 inh inactive and KCNQ2 inh baseline -1.73.
For COc1ccc(N/N=C(\C#N)C(N)=O)cc1 the results were KCNQ2 inh inactive and KCNQ2 inh baseline 0.69.
`CCN(Cc1ccccc1)C(c1cc2cc(C)cc(C)c2[nH]c1=O)c1nnnn1CCOC` (stereo not given) gave KCNQ2 inh inactive and KCNQ2 inh baseline 1.93.
Cc1ccccc1OCCn1cc(C(=O)O)c2ccccc21 was read as KCNQ2 inh inactive and KCNQ2 inh baseline -2.79.
Screening O=C(O)c1cccc(S(=O)(=O)Nc2ccc(O)c(Sc3nc4ccccc4s3)c2)c1 returned KCNQ2 inh inactive and KCNQ2 inh baseline 0.17.
`O=C(Nn1cnnc1)c1csc2ccccc12` gave KCNQ2 inh inactive and KCNQ2 inh baseline -1.64.
O=C(NCCCN1CCCC1=O)C(=O)NCC1OCCN1S(=O)(=O)c1ccc(Cl)cc1 (stereo not given) was read as KCNQ2 inh inactive and KCNQ2 inh baseline 0.33.
`CCCCc1ccc(NC(=O)CSc2nc(=O)n(CCN3CCOCC3)c3c2CCC3)cc1` gave KCNQ2 inh inactive and KCNQ2 inh baseline -0.86.
Screening O=C(N/N=C\c1c(O)ccc2ccccc12)c1ccc(Cn2cccn2)o1 returned KCNQ2 inh inactive and KCNQ2 inh baseline 1.49.
For CCOC(=O)c1ccc(N2C(=O)CC(N3CCN(C(=O)c4ccccc4)CC3)C2=O)cc1 (stereo not given) the results were KCNQ2 inh inactive and KCNQ2 inh baseline -0.04.
For CCC(C)(C)NC(=O)C(OC(=O)c1ccco1)c1ccccc1OC (stereo not given) the results were KCNQ2 inh inactive and KCNQ2 inh baseline -1.37.
Screening Cc1ccc(NC(=O)CCN2C(=O)CSC2=O)cc1 returned KCNQ2 inh inactive and KCNQ2 inh baseline -0.61.
`Cc1c(NC(=O)CN2C(=O)NC(CCc3ccccc3)C2=O)c(=O)n(-c2ccccc2)n1C` (stereo not given) gave KCNQ2 inh inactive and KCNQ2 inh baseline -0.15.
Fc1ccc(C2CC(c3cccs3)=NN2c2ccccc2)cc1 (stereo not given) was read as KCNQ2 inh inactive and KCNQ2 inh baseline 0.36.
`O=S(=O)(Nc1cccc(Oc2cnccn2)c1)c1ccc(F)cc1` gave KCNQ2 inh inactive and KCNQ2 inh baseline -0.04.
For Cc1cccc(N2CCN(C(=O)c3c(C)nn(Cc4ccccc4Cl)c3C)CC2)c1C the results were KCNQ2 inh inactive and KCNQ2 inh baseline -0.27.
For Cc1ccc(NC(=O)Nc2cc(S(C)(=O)=O)ccc2Cl)cc1 the results were KCNQ2 inh inactive and KCNQ2 inh baseline 0.66.
Screening Sc1oc(-c2ccccc2)cc1C=Nc1ccccc1 returned KCNQ2 inh inactive and KCNQ2 inh baseline -0.14.
Screening O=C1CCC(C(=O)N2CCCCO2)CN1CCc1ccc(Cl)cc1 (stereo not given) returned KCNQ2 inh inactive and KCNQ2 inh baseline -3.
Screening CCN(CC)C(=O)Cn1cc(C(=O)C(=O)N2CCN(C)CC2)c2ccccc21 returned KCNQ2 inh inactive and KCNQ2 inh baseline -0.73.
CCc1ccc2c(CSc3nnnn3C)cc(=O)oc2c1 was read as KCNQ2 inh inactive and KCNQ2 inh baseline -0.03.
O=C(COC(=O)Cc1ccccc1F)NNC(=O)c1ccc([N+](=O)[O-])cc1 was read as KCNQ2 inh inactive and KCNQ2 inh baseline 0.68.
COc1cc2cc(C(=O)NCCc3ccccc3)[nH]c2cc1OC was read as KCNQ2 inh inactive and KCNQ2 inh baseline 2.11.
COc1ccc2oc(C(=O)OCC(=O)c3ccc4c(c3)OCCO4)c(C)c2c1 was read as KCNQ2 inh inactive and KCNQ2 inh baseline 1.16.

No new results follow: two of the compounds above.
COc1cc2cc(C(=O)NCCc3ccccc3)[nH]c2cc1OC was read as KCNQ2 inh inactive and KCNQ2 inh baseline 2.11.
COc1ccc2oc(C(=O)OCC(=O)c3ccc4c(c3)OCCO4)c(C)c2c1 was read as KCNQ2 inh inactive and KCNQ2 inh baseline 1.16.

Next part
O=C(CN(CCc1ccccc1)S(=O)(=O)c1ccc(Cl)cc1)N/N=C/c1ccccc1C(=O)O was read as KCNQ2 inh inactive and KCNQ2 inh baseline -0.36.
Screening COc1ccc(N(CC(=O)Nc2cc(Cl)ccc2C)S(=O)(=O)c2c(C)noc2C)cc1 returned KCNQ2 inh inactive and KCNQ2 inh baseline 0.51.
For Nc1c(C(=O)Nc2ccc3c(c2)OCCO3)nnn1Cc1cccc(F)c1 the results were KCNQ2 inh inactive and KCNQ2 inh baseline -1.19.
For O=C(NC1CC1)C1CCN(C2CCN(C(=O)/C=C/c3cccs3)CC2)CC1 the results were KCNQ2 inh inactive and KCNQ2 inh baseline -0.61.
Screening O=C(COC(=O)c1cc(S(=O)(=O)N2CCCCC2)ccc1N1CCOCC1)c1ccc(F)cc1 returned KCNQ2 inh inactive and KCNQ2 inh baseline 1.9.
`Cc1ccc(C)c(OCC(=O)NCCN(C)C)c1` gave KCNQ2 inh inactive and KCNQ2 inh baseline 0.05.
For CCOC(=O)/C=C/C(=O)NNC(=O)c1ccccc1Cl the results were KCNQ2 inh inactive and KCNQ2 inh baseline -0.96.
For COc1ccc(COC(=O)N/N=C(\C)CC(=O)NCc2ccc(Cl)cc2)cc1 the results were KCNQ2 inh inactive and KCNQ2 inh baseline -1.66.
`O=C(Nc1cc2c3c(c1)CC(=O)N3CCC2)C1CC1` gave KCNQ2 inh inactive and KCNQ2 inh baseline -0.01.
Screening COc1cc(NC(=O)C2CC(=O)NC3=C2C(=O)CCC3)c(OC)cc1Cl (stereo not given) returned KCNQ2 inh inactive and KCNQ2 inh baseline 0.43.
For Cc1ccc(NC(=O)c2cc(N(C)C)ccc2[P+](=O)O)cc1 the results were KCNQ2 inh inactive and KCNQ2 inh baseline 0.5.
O=C(CCCCn1c(=S)[nH]c2ccsc2c1=O)NCc1ccc2c(c1)OCO2 was read as KCNQ2 inh inactive and KCNQ2 inh baseline -1.1.
CCN(CC)c1ccc(N/C(N)=N/c2nc(C(F)(F)F)cc(=O)[nH]2)cc1 was read as KCNQ2 inh inactive and KCNQ2 inh baseline -0.91.
`COCc1cc(C)nc(Nc2ccc(C)c(C)c2)c1C#N` gave KCNQ2 inh inactive and KCNQ2 inh baseline -0.42.
For Cn1nc(-c2ccccc2)c(-c2nc(-c3cccc(Cl)c3)no2)c1Cl the results were KCNQ2 inh inactive and KCNQ2 inh baseline -0.94.
O=C(NN=C1C2CC3CC1CC(Cl)(C3)C2)c1cccs1 was read as KCNQ2 inh inactive and KCNQ2 inh baseline -0.21.
For Cn1c(Cl)c(/C=N/OC(=O)c2ccc(Cl)cc2)c2ccccc21 the results were KCNQ2 inh inactive and KCNQ2 inh baseline 0.68.
Screening O=C(CCN1C(=O)c2cccc3cccc(c23)C1=O)NCC1CCCO1 (stereo not given) returned KCNQ2 inh inactive and KCNQ2 inh baseline 3.16.
Screening CC1(C)CC(=O)C2=C(C1)Nc1[nH]c(=S)[nH]c(=O)c1C2c1ccccc1 (stereo not given) returned KCNQ2 inh inactive and KCNQ2 inh baseline -1.66.

Entries listed so far containing an NH in an aromatic ring, in the order listed:
`CCOCCCNc1nc2ccccc2[nH]1` gave KCNQ2 inh inactive and KCNQ2 inh baseline -1.35.
Screening Cc1ccc(S(=O)(=O)N=Nc2c(O)[nH]c3ccccc23)cc1C returned KCNQ2 inh inactive and KCNQ2 inh baseline -1.19.
CCN(CC)S(=O)(=O)c1ccc(C(=O)NCCSc2c[nH]c3ccccc23)cc1 was read as KCNQ2 inh inactive and KCNQ2 inh baseline -0.01.
`CCN(Cc1ccccc1)C(c1cc2cc(C)cc(C)c2[nH]c1=O)c1nnnn1CCOC` (stereo not given) gave KCNQ2 inh inactive and KCNQ2 inh baseline 1.93.
COc1cc2cc(C(=O)NCCc3ccccc3)[nH]c2cc1OC was read as KCNQ2 inh inactive and KCNQ2 inh baseline 2.11.
O=C(CCCCn1c(=S)[nH]c2ccsc2c1=O)NCc1ccc2c(c1)OCO2 was read as KCNQ2 inh inactive and KCNQ2 inh baseline -1.1.
CCN(CC)c1ccc(N/C(N)=N/c2nc(C(F)(F)F)cc(=O)[nH]2)cc1 was read as KCNQ2 inh inactive and KCNQ2 inh baseline -0.91.
Screening CC1(C)CC(=O)C2=C(C1)Nc1[nH]c(=S)[nH]c(=O)c1C2c1ccccc1 (stereo not given) returned KCNQ2 inh inactive and KCNQ2 inh baseline -1.66.
